Bioassay records deposited in PubChem by several laboratories.
CSC inhib: cancer stem cell inhibition | cancer stem cell-like cells viability, luminescence | inhibition, % at 7.5 µM | 300,000 tested, 1.1% active;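 active = mean at 75% or more and at least half the replicates too; tested in HMLE shEcad cells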;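 also: 0% = median of negative and 100% = median of positive control wells; the first replicate is given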
eIF4H inh: inhibitors of RNA binding by human eIF4H | Q15056 | AID 2012 | inhibition, % at 35 µM | eIF4H fluorescence polarization binding assay | 290,000 tested, 0.94% active;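 active = 50% or more with normal probe brightness, or confirmed in later tests; about a fifth of its hits are not listed in these tables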;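 also: calls also rest on retests at 20 µM and on dose response follow-up; 0% = protein and probe with vehicle and 100% = probe without protein; strong numbers were not always called active; many hits fall short of the cut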
MT1-MMP act inh: MT1-MMP (human) activation inhibition; HT1080 RFP-PRO-GFP cells, GFP/RFP ratio fluorescence, overnight; percent of plate control window, DMSO zero; 360,000 tested, 0.061% active; GFP/RFP ratio change, % at 20 µM; P50281;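 active = GFP/RFP ratio change of at least 30% with cell ATP level not reduced by more than half and red fluorescence within 50% of control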; also: strong numbers were not always called active
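Assay system: HT1080 RFP-PRO-GFP cells | Dosing: 20 µM single dose, 1% DMSO | Incubation: Cells overnight before dosing, compound overnight, 37 °C, 5% CO2 | Evaluation: GFP/RFP fluorescence ratio | Control set: DMSO-only wells and HT1080 RFP-L50D-GFP cell wells as references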
PABP FP inh: PABP-poly(A) binding inhibition | P11940 | AID 2014 | PABP-poly(A) RNA binding, fluorescence polarization | 290,000 tested, 1% active | inhibition, % at 35 µM;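 active = 50% or more with normal probe brightness, or confirmed in later tests; about a fifth of its hits are not listed in these tables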;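 also: calls also rest on retests at 20 µM and on dose response follow-up; controls were probe without protein and protein plus probe with vehicle; some compounds called inactive have numbers as strong as hits; many hits fall short of the cut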
Target sequence (P11940 whole entry, looked up): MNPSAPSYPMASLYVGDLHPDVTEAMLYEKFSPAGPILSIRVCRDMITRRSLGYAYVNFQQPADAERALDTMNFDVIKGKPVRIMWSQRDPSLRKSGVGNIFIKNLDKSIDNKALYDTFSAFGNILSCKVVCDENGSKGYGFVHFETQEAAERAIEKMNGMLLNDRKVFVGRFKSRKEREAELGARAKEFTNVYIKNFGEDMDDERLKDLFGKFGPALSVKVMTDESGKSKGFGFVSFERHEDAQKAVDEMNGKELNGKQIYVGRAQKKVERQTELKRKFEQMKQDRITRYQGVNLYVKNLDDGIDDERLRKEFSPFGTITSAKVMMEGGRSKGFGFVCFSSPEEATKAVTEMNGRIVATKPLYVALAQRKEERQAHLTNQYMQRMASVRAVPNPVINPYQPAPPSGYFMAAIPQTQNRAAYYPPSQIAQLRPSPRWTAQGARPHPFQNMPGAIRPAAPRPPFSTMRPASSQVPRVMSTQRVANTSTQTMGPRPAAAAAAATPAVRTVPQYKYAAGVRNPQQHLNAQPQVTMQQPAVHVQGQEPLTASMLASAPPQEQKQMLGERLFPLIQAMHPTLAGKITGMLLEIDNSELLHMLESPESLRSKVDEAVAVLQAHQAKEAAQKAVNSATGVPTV
HIV Env fusion: HIV envelope-mediated fusion inhibition. HeLa-JRFL Env/CEM21 cell fusion, luciferase. inhibition, % at 12.3 µM. 360,000 tested, 1.1% active;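 active = mean replicate inhibition score of at least 50 and every replicate individually at or above 50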;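 also: 0% = plate neutral controls and 100% = maraviroc near 300 nM; one replicate is shown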
UUG fidelity: yeast start codon fidelity modulation | S. cerevisiae UUG-firefly luciferase reporter, luminescence/redox ratio | activity score, % at 18.7 µM | 350,000 tested, 0.13% active | AID 602363;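 active = replicate mean at a twofold rise or more, about +100% in these data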;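 also: firefly luciferase made from a UUG start codon reports start codon fidelity; reporter light over untreated wells divided by growth signal over untreated wells; some hits fall short of that in this replicate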
Rce1 inhib: blocks yeast Ras-converting enzyme; 290,000 tested, 0.27% active; yeast membranes, quenched prenylated peptide cleavage fluorescence; calls only; AID 2563;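 active = fall in fluorescence gain of 50% or more versus controls, with final raw signal at or below 3038400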;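 also: plate controls were neutral control wells for no effect and wells lacking membranes for full effect; tested at 10 µM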
MT1-MMP act inh RFP: also measured in MT1-MMP act inh; calls as there; RFP signal change, %; measured here: RFP expression control read;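 0 = vehicle wells; hits needed this value within 50% of zero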
Starred values were filed as active, the others as inactive; i = inactive; nt = no result given; + = active, no number; & = joins results of further samples.

1. C=CCNC(=O)C1CC=CCC1C(=O)O (stereo unspecified)
2. COc1cc2c(cc1OC)CN(C(=O)COc1ccccc1C#N)CC2
3. Clc1ccc(-c2cn3c(n2)SCC3)cc1
4. COC(=O)/C=C\C(=O)Nc1cccc([N+](=O)[O-])c1
5. O=C(C1CC(=O)N(C2CCCC2)C1)N1CCC(Cc2ccccc2)CC1 (stereo unspecified)
6. Cn1c(/C(C#N)=C(\O)c2ccc(Cl)s2)nc2ccccc21
7. Cn1c(=O)c(-c2ccccc2)nc2ccccc21
8. COc1ccc(C2Nc3ccccc3NC3=C2C(=O)CC(C)(C)C3)c(OC)c1OC (stereo unspecified)
9. O=C1CC(c2ccc(F)cc2)SC(N(c2ccccc2)c2ccccc2)=N1 (stereo unspecified)
10. CC(C)Oc1ccc(CCC(=O)NNC(=S)NCc2ccccc2)cc1

assay / entry | 1 | 2 | 3 | 4 | 5 | 6 | 7 | 8 | 9 | 10
CSC inhib | -7 | 14 | -20 | 88* | -9 | -6 | -14 | -12 | -6 | -8
eIF4H inh | 3 | -16 | 6 | 4 | 14 | 4 | 1 | -1 | 0 | 4
MT1-MMP act inh | 0 | -1 | 5 | 0 | -1 | 1 | 1 | 4 | -1 | 5
MT1-MMP act inh RFP | 5 | 2 | -12 | 3 | -8 | 6 | 1 | 1 | 1 | 5
PABP FP inh | -3 | 2 | -7 | 9 | 2 | -4 | 3 | 12 | 0 | 5
HIV Env fusion | -33 | 4 | -50 | -72 | nt | -22 | -309 | 3 | nt | 1
UUG fidelity | -8 | 0 | nt | nt | -13 | -20 | 3 | -2 | nt | -21
Rce1 inhib | i | i | i | i | i | i | i | i | i | i

11. COc1ccc(-c2csc(NC(=O)CSCC(=O)Nc3cc(C)on3)n2)cc1
12. O=c1cc(CO)occ1OCc1ccccc1
13. CCOC(=O)[C@H]1[C@H]2COc3ccc(Cl)cc3[C@@H]2N2C(=O)c3cc(F)c(F)cc3NC(=O)[C@@]12C
14. Oc1c(C=C2N=c3ccccc3=N2)sc(=S)n1-c1ccc(F)cc1
15. Cc1cccc(NC(=O)COc2ccc(Br)cc2/C=N/O)c1
16. Fc1ccc(CN2C3=NCCN3c3ccccc32)cc1
17. O=C(COC(=O)c1cc([N+](=O)[O-])ccc1NCc1ccccc1Cl)NCC(F)(F)F
18. O=C(CN1CCCC1)Nc1c(Cl)cccc1Cl
19. O=c1c2cc(N3CCOCC3)ccc2[nH]c(=S)n1CCCN1CCCC1
20. COc1cccc(COc2cc3ccccc3nc2C)c1

assay / entry | 11 | 12 | 13 | 14 | 15 | 16 | 17 | 18 | 19 | 20
CSC inhib | -2 | -1 | 2 | -24&-8 | 36 | 8 | 23 | 10 | -15 | 15
eIF4H inh | nt | -3 | nt | 48&-2 | 14 | -5 | -10 | 0 | 9 | 2
MT1-MMP act inh | 2 | 0 | -14 | -5&-36 | 2 | -2 | 5 | -2 | 3 | 1
MT1-MMP act inh RFP | -4 | 4 | -15 | -3&-2 | -2 | -1 | 2 | 0 | 1 | -21
PABP FP inh | nt | 16 | nt | -1&-12 | 6 | -1 | 16 | 6 | -8 | 2
HIV Env fusion | -23 | -33 | -32 | 3&33 | -35 | -4 | nt | -6 | -83 | 35
UUG fidelity | -13 | 484* | -13 | -26 | nt | nt | -7 | -5 | -17 | 12
Rce1 inhib | nt | i | nt | i | i | i | i | i | i | i

Results in Rce1 inhib, UUG fidelity and eIF4H inh, for some of the entries so far:
entry | smiles | Rce1 inhib | UUG fidelity | eIF4H inh
15 | Cc1cccc(NC(=O)COc2ccc(Br)cc2/C=N/O)c1 | i | nt | 14
16 | Fc1ccc(CN2C3=NCCN3c3ccccc32)cc1 | i | nt | -5
17 | O=C(COC(=O)c1cc([N+](=O)[O-])ccc1NCc1ccccc1Cl)NCC(F)(F)F | i | -7 | -10
18 | O=C(CN1CCCC1)Nc1c(Cl)cccc1Cl | i | -5 | 0

(further entries)
21. CCOC(=O)c1[nH]c(CSc2nnc(-c3ccc(OC)cc3)o2)c(C(=O)OCC)c1C
22. COc1ccc(-n2c(Cc3cccn3C)nnc2SCC(=O)Nc2cccc(C)c2C)cc1
23. CCOC(=O)N1CCN(C(=O)COc2ccccc2OC)CC1
24. COc1ccc(Cn2cc(CN3CCS(=O)(=O)N(Cc4ccc(-c5cccc(Cl)c5)cc4)C(C)C3=O)nn2)cc1 (stereo unspecified)
25. CCOc1ccc(NC(=O)C2CC=CCC2C(=O)O)cc1 (stereo unspecified)
26. CCS(=O)(=O)c1ccc2oc(SCC(=O)NCCc3ccccc3)nc2c1
27. COc1ccc(S(=O)CC(=O)Nc2ccc(Cl)cc2Cl)cc1 (stereo unspecified)
28. CC(CCN1C(Nc2ccccc2)=NC[C@@H]1C)c1ccccc1 (stereo partly specified)
29. COc1cc(C(=O)NC(C)c2ccc(-n3ccnc3)cc2)cc(OC)c1C (stereo unspecified)
30. CC1CCN(S(=O)(=O)c2ccc(S(=O)(=O)NCC3COCCO3)cc2)CC1 (stereo unspecified)

assay / entry | 21 | 22 | 23 | 24 | 25 | 26 | 27 | 28 | 29 | 30
CSC inhib | -20 | -11 | 6 | nt | 4 | -5 | -3 | 4 | -5 | 5
eIF4H inh | 3 | 5 | 5 | nt | 5 | 1 | -2 | -2 | 1 | -14
MT1-MMP act inh | -8 | 1 | -6 | 4 | 1 | 1 | 0 | 1 | 1 | 2
MT1-MMP act inh RFP | -1 | 1 | -3 | -12 | 3 | -2 | 3 | 4 | -3 | 3
PABP FP inh | -10 | -8 | -9 | nt | 9 | -17 | -4 | -7 | -7 | -8
HIV Env fusion | nt | -39 | -14 | 15 | 2 | -1 | 2 | -3 | 35 | nt
UUG fidelity | -10 | -12 | -9 | -9 | -7 | nt | nt | -12 | 54 | -5
Rce1 inhib | i | i | i | nt | i | i | i | i | i | i

New compounds follow
No. | canonical_smiles | CSC inhib | eIF4H inh | MT1-MMP act inh | MT1-MMP act inh RFP | PABP FP inh | HIV Env fusion | UUG fidelity | Rce1 inhib
31 | O=C(Cc1cccc(NC(=O)C2CCCN(C(=O)C3CCCC3)C2)c1)Nc1ccc(C(=O)N2CCOCC2)cc1 (stereo unspecified) | nt | nt | 3 | -2 | nt | 11 | 4 | nt
32 | CCC(C(=O)NCCN1CCN(C)CC1)n1c(C)c2cnn(-c3ccccc3)c(=O)c2c1C (stereo unspecified) | 0 | 7 | nt | nt | 15 | nt | 10 | i
33 | O=C1CCCCCN1CP(=O)(O)CN1CCCCCC1=O | -9 | -6 | 0 | 3 | -3 | -40 | -14 | i
34 | COc1cccc(N(CC(=O)NC2CCCC2)C(=O)Cn2nnc(-c3ccc(C)cc3)n2)c1 | -3 | -2 | 2 | -3 | -3 | nt | nt | i
35 | Cc1ccc(C(=O)OCC(=O)Nc2cc(S(C)(=O)=O)ccc2Cl)cc1S(=O)(=O)N1CCCCC1 | -1 | 3 | 3 | 0 | -8 | -1 | -8 | i
36 | Nc1nnc(CCC2CCCCC2)s1 | nt | -17 | 5 | 12 | 16 | 7 | 10 | i
37 | O=S(=O)(CS(=O)(=O)c1ccccc1)c1ccccc1 | nt | nt | 0 | -2 | nt | 19 | -10 | nt
38 | CCc1c(O)nc(SCc2ccccc2)n(C(C)CC)c1=O (stereo unspecified) | 29 | -4 | -6 | -3 | -11 | nt | -2 | i
39 | CC(C)n1c(=O)c2ccccc2n1Cc1cn(C2CCCC2)nn1 | nt | nt | 2 | 5 | nt | 3 | 1 | nt
40 | COc1ccc(-c2cc(C(=O)Nc3c(C)nn(Cc4ccccc4Cl)c3C)no2)cc1 | 14 | 2 | -10 | -7 | -8 | 16 | -18 | i
41 | COc1ccccc1N1CCN(C2CCCN(C(=O)c3ccnc4ccc(C)cc34)C2)CC1 (stereo unspecified) | -11 | 2 | -7 | -5 | 3 | 29 | -8 | i
42 | COc1ccc(NC(=O)N(C)C[C@H]2Oc3ccc(NC(=O)Nc4c(C)noc4C)cc3C(=O)N([C@H](C)CO)C[C@@H]2C)cc1 | nt | nt | -1 | 2 | nt | 9 | -15 | nt
43 | COc1ccc(CCN2CC(C(=O)N(C)Cc3ccc4nsnc4c3)CCC2=O)cc1 (stereo unspecified) | -6 | 5 | -2 | 0 | -2 | nt | -5 | i
44 | O=C(Cc1ccc(NC(=O)C2CCCN(C(=O)C3CCCCC3)C2)cc1)Nc1cccc(C(=O)N2CCCCC2)c1 (stereo unspecified) | nt | nt | 1 | -1 | nt | -3 | -14 | nt
45 | CNC(=S)N1C2CCCC1CC(NC(=O)c1ccc(F)cc1)C2 (stereo unspecified) | -34 | 11 | -2 | 2 | 3 | -16 | -18 | i
46 | CCN(CC)C(NC(=O)c1ccccc1)C(=O)c1ccccc1 (stereo unspecified) | 7 | 26 | -4 | 1 | 17 | nt | -2 | i
47 | O=C1/C(=N\S(=O)(=O)c2cccs2)C([n+]2ccc(CCCc3ccccc3)cc2)=C([O-])c2ccccc21 | 93* | 30 | 2 | 9 | 11 | 7 | -6 | i
48 | Cc1cc(C)n2cc(CSc3nncn3C)nc2n1 | -8 | 4 | -6 | -3 | 0 | 0 | nt | +
49 | COc1ccc(/C=N/Nc2cc(OC)ncn2)cc1 | 23 | -7 | 1 | 0 | 6 | -55 | nt | i
50 | CN(C)S(=O)(=O)c1ccc(C(=O)Oc2cc(=O)[nH]c3ccccc23)cc1 | 6 | -15 | -15 | -1 | 1 | nt | -18 | i
51 | Cc1nc(-c2ccccc2)cn2c1nc1ccccc12 | -13 | 6 | -10 | 5 | -4 | -6 | nt | i
52 | COc1ccc(CNC(=O)c2sc(=O)n(Cc3cc(Cl)ccc3OC)c2C)cc1 | nt | nt | 2 | -7 | nt | 3 | 5 | nt
53 | O=C(O)c1ccc(CSc2nnc(Cc3ccccc3)o2)cc1 | -1 | -7 | 14 | 1 | 12 | nt | -8 | i
54 | CC(CC(=O)O)CC(=O)Nc1cc(C(F)(F)F)cc(C(F)(F)F)c1 (stereo unspecified) | -9 | -4 | -1 | 0 | -4 | 3 | nt | i
55 | O=C(Nc1c2c(nn1-c1ccc(F)cc1)CS(=O)C2)c1ccco1 (stereo unspecified) | -8 | 2 | -4 | 2 | 11 | -2 | -16 | i
56 | N#Cc1c2ccccc2nc2ccccc12 | -1 | 0 | 2 | 2 | 8 | -40 | -4 | i
57 | CN(CCc1ccccn1)C(=O)CCC1CCCN(C(=O)c2cccc(N(C)C)c2)C1 (stereo unspecified) | -7 | 0 | -1 | -1 | 4 | nt | -1 | i
58 | CN(CCc1ccccc1)C(=O)c1cccc(NC(=O)Cc2cccc(NC(=O)C3CCCN(C(=O)CCc4ccccc4)C3)c2)c1 (stereo unspecified) | nt | nt | -3 | -27 | nt | 44 | -5 | nt
59 | Cc1ccc(C)c(NC(=O)CN(C)C(=O)c2ccccn2)c1 | nt | nt | -3 | 0 | nt | -1 | -8 | nt
60 | C=CCC[C@@H](Cc1ccc(F)cc1)C(=O)OC[C@@H]1CCCN1C(=O)[C@@H](CC=C)CC(=O)N[C@@H](CO)Cc1ccccc1 | nt | nt | -13 | -19 | nt | 12 | -8 | nt
61 | CN(CCc1ccccc1)C(=O)c1ccc(NC(=O)Cc2cccc(NC(=O)C3CCN(C(=O)C4CC4)CC3)c2)cc1 | nt | nt | 2 | 2 | nt | -37 | 12 | nt
62 | O=C(O)c1ccccc1/C=N/Nc1nc(N2CCCCC2)nc(N2CCCCC2)n1 | -16 | -5 | nt | nt | -16 | -6 | nt | i

No enrichment for hits; overall some 2.9% were active at least once.
